UUG fidelity: alters start codon recognition fidelity in yeast; 0.13% of 350,000 active; activity score, % at 18.7 µM; AID 602363; S. cerevisiae UUG-firefly luciferase reporter, luminescence/redox ratio;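 active means replicate mean at a twofold rise or more, about +100% in these data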;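 further: firefly luciferase made from a UUG start codon reports start codon fidelity; reporter light over untreated wells divided by growth signal over untreated wells; some hits fall short of that in this replicate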
HIV Env fusion: inhibitors of HIV Env-mediated cell fusion | HeLa-JRFL Env/CEM21 cell fusion, luciferase | inhibition, % at 12.3 µM | 1.1% of 360,000 active;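 active means mean replicate inhibition score of at least 50 and every replicate individually at or above 50; inconclusive means only one of the two criteria met; inactive means mean below 50 and not all replicates reaching 50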;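 further: 0% = plate neutral controls and 100% = maraviroc near 300 nM; one replicate is shown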
Numbers without * were called inactive; ? = inconclusive; [ ] = dose if it differs, or a comment. This is a subset; rates above refer to the full screens.

mol | UUG fidelity | HIV Env fusion
CC(C)NC(=O)Nc1ccc2c(c1)C(=O)N([C@@H](C)CO)C[C@@H](C)[C@@H](CN(C)Cc1ccc(C(=O)O)cc1)OCCCC[C@@H](C)O2 | 13.4 | 4.2[16.7 µM]
O=C(C[C@@H]1C=C[C@H](NC(=O)Nc2ccc3c(c2)OCO3)[C@@H](CO)O1)NCCCN1CCOCC1 | -15.6 | -11.1[16.7 µM]
CCC(=O)Nc1ccc2c(c1)C(=O)N(C)[C@@H]1CC[C@@H](CC(=O)NCc3ccccc3Cl)O[C@H]1CO2 | 11.8 | -3.3[16.7 µM]
C[C@@H]1CN([C@@H](C)CO)C(=O)c2cc(NS(=O)(=O)c3ccc(F)cc3)ccc2O[C@@H](C)CCCCO[C@H]1CN(C)C(=O)c1ccncc1 | -2.1 | -13.7[16.7 µM]
CNC[C@H]1Oc2ccc(NC(=O)C3CCCCC3)cc2C(=O)N([C@@H](C)CO)C[C@@H]1C | 10.3 | 9.9[16.7 µM]
CC(C)NC(=O)Nc1ccc2c(c1)C(=O)N([C@@H](C)CO)C[C@H](C)[C@@H](CN(C)Cc1ccccc1)OCCCC[C@H](C)O2 | 4.0 | -13.7[16.7 µM]
COc1ccc(NC(=O)Nc2ccc3c(c2)C(=O)N([C@@H](C)CO)C[C@@H](C)[C@H](CN(C)Cc2ccc(C(F)(F)F)cc2)OCCCC[C@@H](C)O3)cc1 | 12.5 | ?
C[C@H]1CN([C@@H](C)CO)C(=O)c2cccc(NC(=O)Nc3ccc(F)cc3)c2O[C@@H]1CN(C)C(=O)Nc1ccccc1 | 24.8 | -1.8[16.7 µM]
COc1ccc(NC(=O)Nc2cccc3c2O[C@H](CN(C)C(=O)Nc2c(C)noc2C)[C@H](C)CN([C@H](C)CO)C3=O)cc1 | -3.9 | 8.4[16.7 µM]
C[C@H]1CN([C@@H](C)CO)S(=O)(=O)c2ccc(/C=C/c3ccccc3)cc2O[C@@H]1CN(C)C(=O)NC1CCCC1 | 1.0 | -14.0[16.7 µM]
C[C@@H]1CCCCO[C@H](CN(C)S(=O)(=O)c2cn(C)cn2)[C@H](C)CN([C@@H](C)CO)C(=O)c2cc(NS(=O)(=O)c3ccc(Cl)cc3)ccc2O1 | 15.2 | -18.6[16.7 µM]
C[C@H](CO)N1C[C@H](C)[C@H](CN(C)Cc2ccccc2)Oc2ccc(NC(=O)Nc3ccc(C(F)(F)F)cc3)cc2C1=O | 2.6 | 5.0[16.7 µM]
Cc1noc(C)c1S(=O)(=O)N(C)C[C@@H]1OCCCC[C@H](C)Oc2ccc(NS(=O)(=O)c3cccs3)cc2C(=O)N([C@H](C)CO)C[C@H]1C | 2.9 | 12.2[16.7 µM]
C[C@H]1CN([C@@H](C)CO)S(=O)(=O)c2ccc(-c3ccccc3)cc2O[C@@H]1CN(C)S(C)(=O)=O | 11.0 | 20.3[16.7 µM]
COc1ccccc1C#Cc1ccc2c(c1)O[C@H](CN(C)C(C)=O)[C@@H](C)CN([C@H](C)CO)S2(=O)=O | 17.0 | 2.2[16.7 µM]
COc1cccc(NC(=O)N[C@H]2CC[C@H](CC(=O)N3CCN(C)CC3)O[C@@H]2CO)c1 | 17.3 | -0.2[16.7 µM]
CN1C(=O)N[C@@H]2c3ccccc3O[C@@]1(C)[C@@H]2COC(=O)c1ccccc1 | 14.8 | 0.3[16.7 µM]
COc1ccc(CN(C)C[C@@H]2Oc3ccc(NC(=O)Cc4cn(C)c5ccccc45)cc3CC(=O)N([C@H](C)CO)C[C@@H]2C)cc1 | 6.6 | 2.0[16.7 µM]
C[C@@H]1CN([C@@H](C)CO)C(=O)Cc2cc(N(C)C)ccc2O[C@@H]1CN(C)C(=O)Nc1ccccc1 | 18.6 | 8.0[16.7 µM]
COc1ccc(NC(=O)N(C)C[C@H]2Oc3ccc(NS(C)(=O)=O)cc3CC(=O)N([C@H](C)CO)C[C@H]2C)cc1 | -9.7 | 0.2[16.7 µM]
Cc1noc(C)c1S(=O)(=O)Nc1ccc2c(c1)C(=O)N([C@@H](C)CO)C[C@@H](C)[C@@H](CN(C)S(=O)(=O)c1cccs1)OCCCC[C@@H](C)O2 | 7.6 | -29.1[16.7 µM]
COc1ccc(CN(C)C[C@@H]2OCCCC[C@H](C)Oc3ccc(NC(=O)NC(C)C)cc3C(=O)N([C@H](C)CO)C[C@@H]2C)cc1 | 7.6 | -19.7[16.7 µM]
COc1ccc(NC(=O)N(C)C[C@@H]2OCCCC[C@@H](C)Oc3ccc(NS(=O)(=O)c4cn(C)cn4)cc3C(=O)N([C@@H](C)CO)C[C@H]2C)cc1 | -20.8 | -11.4[16.7 µM]
C[C@@H]1CN([C@H](C)CO)S(=O)(=O)c2ccc(-c3ccc(C#N)cc3)cc2O[C@H]1CN(C)C(=O)CN(C)C | -0.3 | 5.0[16.7 µM]
CO[C@H]1CN(C)C(=O)c2cc(NC(C)=O)ccc2OC[C@H](C)N(C(=O)c2ccccn2)C[C@H]1C | 0.2 | -21.7[16.7 µM]
CCNC(=O)C[C@H]1CC[C@H]2[C@@H](COc3ccc(NC(=O)Nc4ccc(C#N)cc4)cc3C(=O)N2C)O1 | -11.5 | 17.9[16.7 µM]
COc1cccc(S(=O)(=O)N(C)C[C@H]2Oc3ncc(C#CCN(C)C)cc3C(=O)N([C@H](C)CO)C[C@H]2C)c1 | 12.6 | 9.7[16.7 µM]
C[C@H](CO)N1C[C@H](C)[C@H](CN(C)C(=O)Nc2ccc3c(c2)OCO3)Oc2ccc(NC(=O)Nc3cccc4ccccc34)cc2CC1=O | -5.6 | -0.1[16.7 µM]
COc1ccc(-c2cnc3c(c2)C(=O)N([C@@H](C)CO)C[C@H](C)[C@@H](CN(C)C(=O)Cc2ccncc2)O3)cc1 | -5.9 | -17.3[16.7 µM]
C[C@H]1CN([C@@H](C)CO)C(=O)Cc2cc(NS(=O)(=O)c3ccc(Cl)cc3)ccc2O[C@H]1CN(C)C(=O)Nc1cccc2ccccc12 | 6.6 | 7.7[16.7 µM]
COc1ccc(CN(C)C[C@H]2OCCCC[C@@H](C)Oc3ccc(NC(=O)Nc4ccc(OC)cc4)cc3C(=O)N([C@@H](C)CO)C[C@@H]2C)cc1 | 19.9 | -46.7[16.7 µM]
COCC#Cc1cnc2c(c1)C(=O)N([C@@H](C)CO)C[C@H](C)[C@@H](CN(C)C(=O)C1CCOCC1)O2 | -14.8 | 14.8[16.7 µM]
C[C@@H]1CN([C@H](C)CO)S(=O)(=O)c2ccc(-c3ccc(F)cc3)cc2O[C@@H]1CN(C)CC1CC1 | 15.6 | -4.3[16.7 µM]
O=C(C[C@@H]1CC[C@H](NS(=O)(=O)c2ccccc2)[C@H](CO)O1)NCc1ccncn1 | -8.8 | -7.0[16.7 µM]
Cc1noc(C)c1NC(=O)Nc1ccc2c(c1)C(=O)N([C@H](C)CO)C[C@H](C)[C@H](CN(C)S(=O)(=O)c1c(C)noc1C)OCCCC[C@H](C)O2 | 9.2 | -19.7[16.7 µM]
C[C@H]1CN([C@@H](C)CO)C(=O)c2cc(/C=C/c3ccccc3)cnc2O[C@H]1CN(C)S(C)(=O)=O | 17.6 | -14.0[16.7 µM]
Cc1noc(C)c1NC(=O)Nc1ccc2c(c1)C(=O)N([C@H](C)CO)C[C@@H](C)[C@H](CN(C)S(=O)(=O)c1cccs1)OCCCC[C@H](C)O2 | 11.7 | -14.8[16.7 µM]
O=C(Nc1ccc(Cl)cc1)N[C@@H]1CC[C@@H](CCn2cc(C3(O)CCCC3)nn2)O[C@@H]1CO | -17.7 | 1.8[16.7 µM]
O=C(CCN1CCCCC1)N[C@@H]1CC[C@@H](CCNS(=O)(=O)c2ccccc2)O[C@@H]1CO | 13.6 | 13.5[16.7 µM]
Cc1ccc(S(=O)(=O)Nc2ccc3c(c2)C(=O)N([C@H](C)CO)C[C@@H](C)[C@H](CN(C)C(=O)NC2CCCCC2)OCCCC[C@H](C)O3)cc1 | 1.4 | -49.9[16.7 µM]
CC(C)C#Cc1cnc2c(c1)C(=O)N([C@H](C)CO)C[C@H](C)[C@@H](CN(C)Cc1cccc(F)c1)O2 | -4.0 | 5.4[16.7 µM]
O=C(C[C@@H]1CC[C@@H](NC(=O)CC2CC2)[C@H](CO)O1)NCc1ccc(-c2ccccc2)cc1 | -6.4 | -4.4[16.7 µM]
COCc1cn(CC[C@H]2CC[C@H](NC(=O)Nc3ccc(F)cc3)[C@@H](CO)O2)nn1 | -12.5 | -18.4[16.7 µM]
C[C@H](CO)N1C[C@H](C)[C@H](CN(C)C(=O)NC2CCCC2)Oc2cc(-c3cccnc3)ccc2S1(=O)=O | -3.9 | -3.2[16.7 µM]
C[C@@H]1CN([C@H](C)CO)S(=O)(=O)c2ccc(C3=CCCCC3)cc2O[C@H]1CN(C)S(=O)(=O)c1ccc(F)cc1 | -9.5 | 31.2[16.7 µM]
COc1ccc(NC(=O)N(C)C[C@@H]2OCCCC[C@@H](C)Oc3ccc(NC(=O)Nc4ccc(C(F)(F)F)cc4)cc3C(=O)N([C@@H](C)CO)C[C@H]2C)cc1 | -14.0 | -1.4[16.7 µM]
CNC[C@@H]1OCCCC[C@@H](C)Oc2ccc(NS(=O)(=O)c3ccc(OC)cc3)cc2C(=O)N([C@H](C)CO)C[C@@H]1C | 6.2 | 0.7[16.7 µM]
Cc1noc(C)c1S(=O)(=O)Nc1ccc2c(c1)CC(=O)N([C@@H](C)CO)C[C@H](C)[C@H](CN(C)Cc1ccncc1)O2 | -14.5 | -1.2[16.7 µM]
Cc1noc(C)c1S(=O)(=O)Nc1ccc2c(c1)C(=O)N([C@@H](C)CO)C[C@@H](C)[C@@H](CN(C)C(=O)Nc1cccc3ccccc13)OCCCC[C@H](C)O2 | 20.5 | -59.8[16.7 µM]
CCCN(C)C[C@@H]1OCCCC[C@@H](C)Oc2ccc(NS(=O)(=O)c3ccccc3)cc2C(=O)N([C@H](C)CO)C[C@@H]1C | -6.0 | 2.6[16.7 µM]

Next section:
mol | UUG fidelity | HIV Env fusion
CCNC(=O)C[C@H]1CC[C@H]2[C@@H](COc3ccc(NC(=O)C4CCOCC4)cc3C(=O)N2C)O1 | -5.9 | 5.3[16.7 µM]
CO[C@H]1CN(C)C(=O)c2ccc(NC(=O)C3CC3)cc2OC[C@@H](C)N(CCc2ccccc2)C[C@H]1C | 7.7 | -7.8[16.7 µM]
C/C=C/c1cnc2c(c1)C(=O)N([C@H](C)CO)C[C@@H](C)[C@@H](CN(C)CC1CCOCC1)O2 | 3.9 | 3.8[16.7 µM]
Cc1ccc(-c2ccc3c(c2)O[C@H](CN(C)C(=O)C2CC2)[C@@H](C)CN([C@@H](C)CO)S3(=O)=O)cc1 | -10.1 | -5.3[16.7 µM]
Cc1ccc(S(=O)(=O)Nc2ccc3c(c2)CC(=O)N([C@@H](C)CO)C[C@@H](C)[C@@H](CN(C)S(C)(=O)=O)O3)cc1 | 11.3 | -0.4[16.7 µM]
O=C(C[C@@H]1C[C@@H]2c3cc(NC(=O)Nc4ccc(C(F)(F)F)cc4)ccc3O[C@@H]2[C@H](CO)O1)NCc1ccc2c(c1)OCO2 | -23.4 | -13.4[16.7 µM]
C[C@H](CO)N1C[C@H](C)[C@H](CN(C)Cc2ccc(-c3ccccc3)cc2)Oc2ccc(NS(=O)(=O)c3ccccc3)cc2C1=O | 0.2 | -19.4[16.7 µM]
CC(C)C#Cc1ccc2c(c1)O[C@@H](CN(C)C(=O)c1cccc(F)c1)[C@@H](C)CN([C@@H](C)CO)S2(=O)=O | 11.5 | 4.1[16.7 µM]
COc1ccc(S(=O)(=O)N(C)C[C@@H]2OCCCC[C@@H](C)Oc3ccc(NC(=O)NC4CCCCC4)cc3C(=O)N([C@H](C)CO)C[C@H]2C)cc1 | -0.5 | 9.5[16.7 µM]
COc1ccc(NC(=O)Nc2ccc3c(c2)CC(=O)N([C@@H](C)CO)C[C@H](C)[C@@H](CN(C)CC2CCCCC2)O3)cc1 | -6.7 | -11.5[16.7 µM]
COc1ccc(NC(=O)Nc2ccc3c(c2)C(=O)N([C@H](C)CO)C[C@H](C)[C@@H](CN(C)Cc2ccc4c(c2)OCO4)OCCCC[C@@H](C)O3)cc1 | 0.9 | 2.0[16.7 µM]
C[C@H]1CN([C@@H](C)CO)C(=O)c2cc(N(C)C)ccc2O[C@H]1CN(C)S(=O)(=O)c1ccccc1 | 18.5 | 28.7[16.7 µM]
CCC(=O)Nc1ccc2c(c1)OC[C@@H](C)N(C(=O)CN(C)C)C[C@H](C)[C@@H](OC)CN(C)C2=O | 3.0 | -6.5[16.7 µM]
Cc1ccc(S(=O)(=O)Nc2ccc3c(c2)C(=O)N([C@H](C)CO)C[C@@H](C)[C@@H](CN(C)Cc2ccc(C(F)(F)F)cc2)OCCCC[C@H](C)O3)cc1 | 13.2 | ?
C[C@@H]1CN([C@H](C)CO)C(=O)c2cc(NC(=O)Cc3ccccc3)ccc2O[C@H]1CN(C)C(=O)Nc1cccc2ccccc12 | 43.4 | 16.4[16.7 µM]
C[C@@H]1CN([C@H](C)CO)C(=O)c2cc(C#C[C@@H](C)O)cnc2O[C@H]1CN(C)Cc1cncnc1 | 9.2 | 3.2[16.7 µM]
O=C(N[C@H]1CC[C@@H](CCNC(=O)C2CCOCC2)O[C@@H]1CO)c1ccccn1 | -21.2 | -4.2[16.7 µM]

3 of these compounds in another layout.
Each structure is followed by: UUG fidelity | HIV Env fusion
O=C(N[C@H]1CC[C@@H](CCNC(=O)C2CCOCC2)O[C@@H]1CO)c1ccccn1
    -21.2 | -4.2[16.7 µM]
C[C@@H]1CN([C@H](C)CO)C(=O)c2cc(C#C[C@@H](C)O)cnc2O[C@H]1CN(C)Cc1cncnc1
    9.2 | 3.2[16.7 µM]
CCC(=O)Nc1ccc2c(c1)OC[C@@H](C)N(C(=O)CN(C)C)C[C@H](C)[C@@H](OC)CN(C)C2=O
    3.0 | -6.5[16.7 µM]

Screening results: PubChem, Broad Institute
